Assay outcomes from PubChem.
Cruzain inh noDet – blocks cruzain activity in detergent-free assay; hit rate 2.3% among 200,000; purified cruzain, Z-FR-AMC fluorescence, no detergent; AID 1476; Potency, µM, for inactives: max response, negative = inhibition, hits mostly inhibitors; active = well fitted curve in the direction sought with a large enough effect; inconclusive = small, poorly fitted or top-dose-only effect, or another doubt; inactive = no such curve, though single readings can be large; an effect the other way counts as inactive or inconclusive;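 also: plate controls were enzyme without inhibitor for no effect and buffer without enzyme for full effect; nearly all actives have a fitted effect of over 40% in size; top concentration of the series not given in the record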
Target sequence (P25779 123-467 limits assumed): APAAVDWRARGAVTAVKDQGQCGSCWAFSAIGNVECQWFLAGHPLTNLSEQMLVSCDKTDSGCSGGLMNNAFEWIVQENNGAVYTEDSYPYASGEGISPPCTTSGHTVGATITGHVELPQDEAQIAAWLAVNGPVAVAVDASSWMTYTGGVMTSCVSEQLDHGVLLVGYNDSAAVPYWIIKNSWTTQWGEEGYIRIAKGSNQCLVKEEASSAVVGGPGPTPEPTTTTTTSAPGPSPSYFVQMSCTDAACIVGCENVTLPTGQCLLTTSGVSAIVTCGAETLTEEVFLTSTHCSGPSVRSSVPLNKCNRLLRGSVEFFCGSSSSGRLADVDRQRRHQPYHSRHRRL
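Detergent-free condition (0.00005% Triton X-100) in acetate buffer pH 5.5 with DTT. 1.5 nM enzyme and compound were pre-mixed 15 min, then 2 uM Z-FR-AMC substrate added; reaction progress from fluorescence change between first and third reads (60 s).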
Marburg entry inh – Marburg virus entry inhibition | Marburg virus pseudotyped entry inhibition, cell reporter; control for the full effect not named in the record; about a third of the inactives were read at about 46 µM | Potency, µM (doses to about 37.8 µM), for inactives: at the top dose activity change, negative = inhibition, hits mostly inhibitors | hit rate 1.8% among 300,000 | AID 540276; active = well fitted inhibition curve with a large enough effect; inconclusive = small, poorly fitted or top-dose-only effect, or effect the other way; inactive = flat fitted curve, though single readings scatter; tested in HEK293 cells; about a fifth of its hits are not listed in these tables; also: % is scaled to controls: 0 for no effect and ±100 for the full control effect; luciferase read-out
RE007 growth inh – less growth of the S. pombe RE007 Vpr strain; Potency, µM (titrated, usually from 92.2 µM), without a hit: top-dose activity change, negative = less growth; hit rate 0.21% among 360,000; AID 651644; S. pombe RE007 Vpr strain, BacTiter-Glo ATP luminescence, 24 h; control for the full effect not named in the record; active = well fitted falling curve with a large enough effect; inconclusive = small, poorly fitted or top-dose-only effect; inactive = no such curve, though single readings can be large or run the other way;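 also: % is scaled to controls: 0 for no effect and ±100 for the full control effect; nearly all actives have a fitted effect of over 50% in size; the assay follows cell death caused by Vpr and the record does not say whether a fall means rescue or toxicity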
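Fission yeast strain RE007, carrying one chromosomally integrated HIV-1 vpr copy, was seeded at OD 0.01 in PMG+AL medium with 23 nL pinned compound. After 24 h at 30 °C and 99% humidity, viability was read by BacTiter-Glo luminescence.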
Cruzain inh Det – inhibitors of Trypanosoma cruzi cruzain with detergent. P25779. purified cruzain, Z-FR-AMC fluorescence, 0.01% Triton. Potency, µM, inactives show max response, negative = inhibition, hits mostly inhibitors. hit rate 0.43% among 200,000. AID 1478; active = well fitted curve in the direction sought with a large enough effect; inconclusive = small, poorly fitted or top-dose-only effect, or another doubt; inactive = no such curve, though single readings can be large; an effect the other way counts as inactive or inconclusive;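 also: plate controls were neutral wells for no effect and buffer without enzyme for full effect; nearly all actives have a fitted effect of over 40% in size; top concentration of the series not given in the record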
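Cruzain (1.5 nM) preincubated 15 min at RT with compound in 100 mM sodium acetate pH 5.5, 5 mM DTT, 0.01% Triton X-100. Reaction started with 2 uM Z-FR-AMC; AMC fluorescence (ex 360/em 450 nm) change over 60 s gave rate.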
SARS PLP yeast – inhibitors of SARS-CoV papain-like protease in yeast | Potency, µM (doses to about 32.9 µM), inactives show at the highest dose activity, positive = growth rescue | hit rate 0.19% among 330,000 | S. cerevisiae expressing SARS-CoV PLpro, growth rescue; control for the full effect not named in the record | AID 485353; also: 0% is about no effect; nearly all actives have a fitted effect of over 55% in size; growth read by luminescence after 48 h
2A StopGo – lowers the luciferase signal of an FMDV 2A StopGo reporter. human cells with a luciferase reporter of 2A StopGo recoding; control for the full effect not named in the record. Potency, µM (doses to about 57.9 µM), for the others: top-dose signal change, negative = less light. hit rate 1.2% among 410,000. AID 1159524; active = well fitted falling curve with a large enough effect; inconclusive = small, poorly fitted or top-dose-only effect; inactive = no such curve, though single readings can be large or run the other way; tested in HEK293T cells; also: % is scaled to controls: 0 for no effect and ±100 for the full control effect; nearly all actives have a fitted effect of over 45% in size; luciferase light after 4 h
NS1 inh – influenza NS1 inhibition; AID 2326; S. cerevisiae slowed by influenza A NS1, growth recovery by OD600; Potency, µM (top dose mostly 46.1 µM), for inactives: at the highest dose activity, positive = more growth; hit rate 0.4% among 270,000; also: actives are rising curves; nearly all actives have a fitted effect of over 50% in size
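A cell-based growth assay was used: compounds that relieve NS1-induced slow growth of budding yeast raise OD600. Assay medium was yeast nitrogen base with ammonium sulphate and -URA supplement, pH 6.0, with 2% galactose.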
LASV entry inh – blocks Lassa virus binding to or entry into cells | AID 540256 | Lassa virus pseudotype entry inhibition, cell reporter; control for the full effect not named in the record | hit rate 1.2% among 300,000 | Potency, µM (series often up to 37.9 µM), without a hit: at the highest dose activity change, negative = inhibition, most hits filed as inhibitors; active means well fitted inhibition curve with a large enough effect; inconclusive means small, poorly fitted or top-dose-only effect, or effect the other way; inactive means flat fitted curve, though single readings scatter; tested in HEK293 cells; also: % is scaled to controls: 0 for no effect and ±100 for the full control effect; nearly all actives have a fitted effect of over 50% in size; luciferase read-out
* hit, by the source's call; ? = inconclusive; nt = no result given; & = joins results of further samples; [ ] = remark or other dose. Unless noted, calls follow the shape of the dose curve; as a rule, active means well fitted rising curve with a large enough effect; inconclusive means small, poorly fitted or top-dose-only effect; inactive means no such curve, though single readings can be large or run the other way. Potency is read from the fitted curve at half-maximal effect. Rows were taken by chance, and some 4.7% of all compounds hit somewhere here.

SMILES | Cruzain inh noDet | Marburg entry inh | RE007 growth inh | Cruzain inh Det | SARS PLP yeast | 2A StopGo | NS1 inh | LASV entry inh
COc1ccc(-c2csc(CCN3N=C(C)CC3=O)n2)cc1 | nt | -26%[46.1 µM] | 7% | nt | 0% | -26% | 9% | 3%
Cc1ccc(NC(=O)c2ccc3c(=O)n4nc(Nc5ccccc5C)sc4nc3c2)cc1C | 2% | nt | nt | -0.6% | nt | -19% | nt | 6%[46.1 µM]
Cc1cc(Oc2ccc(=O)n(C)n2)nc(Oc2ccc(=O)[nH]n2)n1 | 12% | 12% | 19% | 3.4% | 1% | -12% | 6% | 15%
CCOC(=O)c1[nH]c(C)c(C(=O)NCc2cccnc2)c1C | -4% | nt | -7% | 6.6% | 5% | -11% | 2% | nt
Cc1nn(CCC(=O)Nc2cccc(C#N)c2)c(C)c1S(=O)(=O)N1CCCCC1 | -8% | ? | 12% | -0.5% | -19% | -14%&-22% | ? | -28%&4%[46.1 µM]
Cc1cccc2cncc(OCc3nnc(SC(F)F)n3C)c12 | nt | 3%[46.1 µM] | 22% | nt | -2% | -9% | nt | 7%[46.1 µM]
Cc1cccc(COCC(CC(C)C)N2CCN(C(=O)c3ccc(C(F)(F)F)cc3)CCC2=O)c1 (stereo not given) | ? | ? | 1% | -11% | 5% | 0% | -6% | ?
C/C(Cc1ccccc1)=N\NC(=O)CNC(=O)c1ccccc1F | nt | 15%[46.1 µM] | 4% | nt | 1% | 14% | -7% | ?
COc1cc(C(=O)NNC(=S)NC(=O)c2ccc(Cl)cc2)cc(OC)c1OC | ? | ? | 4% | -2.0% | -8% | -10% | 3% | ?
Cn1cc(SCC(=O)N2CCOCC2)c2ccccc21 | 3% | nt | 0% | -1.0% | -3% | 20% | 0% | nt
COc1ccc(C)c2sc(N(CCCN(C)C)C(=O)CS(=O)(=O)c3ccc(F)cc3)nc12 | nt | ? | 1% | nt | nt | -1% | nt | -10%
CCC(C)(C)NC(=O)C(c1cccs1)N(C(=O)c1ccn[nH]1)c1cccc(OC)c1 (stereo not given) | nt | -14% | 9% | nt | -1% | -25% | -1% | -10%
COc1ccc(-c2nc3scc(CCNS(=O)(=O)c4cccc(C(C)=O)c4)n3n2)cc1 | -9% | nt | nt | -2.9% | nt | 34%[activator] | nt | -9%[46.1 µM]
Cc1ccc(NCC(=O)Nc2cccc(S(=O)(=O)N(C)C)c2)cc1S(=O)(=O)N1CCCCCC1 | nt | ? | -1% | nt | -6% | ? | nt | ?
C=CCNC(=O)c1onc(CSc2cccc(Cl)c2)c1C(=O)O | -14% | nt | 5% | -1.4% | -2% | 0% | 7% | nt
CCOC(=O)c1c(NC(=O)c2cc(-c3ccc(OC)c(OC)c3)on2)sc(C)c1C | -5% | -6%[46.1 µM] | nt | -3.7% | nt | 6% | nt | -24%[46.1 µM]
CCc1ccc(NC(=O)CN(c2ccc(OC)cc2)S(=O)(=O)c2c(C)[nH]c(=O)[nH]c2=O)cc1 | -9% | 2%&2%[46.1 µM] | 2% | 0.0% | -9% | -15%&-12% | 6% | -4%[46.1 µM]
C=CCn1c(=O)c2c3c(sc2n2c(Nc4ccc(C(=O)OCC)cc4)nnc12)CCCC3 | -2% | 6% | 31%[3.69 µM] | -3.0% | 8% | 12% | 26% | 3%
CCOc1ccc(NCCC#N)cc1 | 0% | ? | 21% | 3.6% | 3% | -8% | -1% | 0%
CN(C)c1ccc(/C=N/NC(=O)CCCO)cc1 | nt | ? | 20% | nt | -2% | 20% | nt | -2%
COC(=O)c1sccc1NC(=O)Nc1ccc(Cl)c(Cl)c1 | ? | ? | 2% | -5.3% | -12% | 36%[activator] | -57% | -7%
CC(C)COP(=O)(c1ccc(N(C)C)cc1)C(O)c1ccncc1 (stereo not given) | 5% | -14% | 13% | 7.2% | 10% | -9% | -13% | -2%
CCC(Sc1ccc2nnc(-c3cccnc3)n2n1)C(=O)OC (stereo not given) | nt | 28%&28%[46.1 µM] | -6% | nt | 6% | -10% | nt | 10%[46.1 µM]
CCOc1ccccc1NC(=O)NNC(=O)COc1cccc(C)c1C | nt | -13% | 2% | nt | -2% | 0% | -2% | -5%
CC(C)(C)C(=O)/C(C#N)=C/c1ccc(O)cc1 | nt | 4%[46.1 µM] | 4% | nt | 0% | -9% | nt | -12%[46.1 µM]
Other results.
SMILES | Cruzain inh noDet | Marburg entry inh | RE007 growth inh | Cruzain inh Det | SARS PLP yeast | 2A StopGo | NS1 inh | LASV entry inh
CCOc1ccc2[nH]c3c(=O)n(CCc4ccc(OC)cc4)cnc3c2c1 | nt | 7%[46.1 µM] | -7% | nt | 4% | -12% | 12% | nt
CCCn1c(N)c(C(=O)CN(C)CC(=O)Nc2c(C)cc(C)cc2C)c(=O)[nH]c1=O | nt | -2% | -7% | nt | 7% | -9% | nt | 6%
O=C1C=C(NCC2CCCO2)CC(c2ccccc2)C1 (stereo not given) | -4% | 7% | -20% | 3.5% | 1% | -27% | 4% | 13%
Cc1ccc(C(=O)n2nc(-c3ccccc3)nc2NCc2ccco2)cc1 | -5% | 0% | 4% | -5.5% | -20% | 32%[activator] | 8% | 8%
Cc1ccc(C(=O)NCCn2c(N)c(C#N)c3nc4ccccc4nc32)cc1 | ? | ? | 10% | -6.5% | 22% | -15% | -1% | 2%
COc1cccc(NS(=O)(=O)c2ccc3c(c2)CCN3C(C)=O)c1 | nt | ? | 3% | nt | 1% | 18% | 0% | -23%
C=CCn1c(SCC(=O)Nc2cc(C)c(Cl)cc2OC)nnc1-c1ccco1 | 22% | -19% | 21% | -6.0% | 3% | -15% | -93% | -27%
COc1ccccc1N1C(=O)NC(=O)C(CCc2ccncc2)(CCc2ccncc2)C1=O | 6% | 25% | -4% | 2.7% | 2% | nt | -5% | -11%
O=S(=O)(NCCc1ccccc1)c1ccc(F)cc1 | nt | nt | 39% | nt | -3% | 96%[activator] | 27% | nt
CCc1ccc(CCC(=O)Nc2sc(C)c(C)c2C(=O)OC)o1 | 0% | -1% | -22% | -5.1% | -17% | -14% | -29% | ?
CCN(CC)S(=O)(=O)c1ccc(Cl)c(NC(=O)c2cc(Cl)cc(Cl)c2)c1 | -12% | ? | 8% | -4.2% | -22% | 0% | -4% | 11%
CCC(CC)C(=O)c1c[nH]c(C(=O)NCCCN2CCOCC2)c1 | -5% | 1% | 4% | 3.0% | 2% | -11% | -1% | ?
O=C1c2oc3ccc(F)cc3c(=O)c2C(c2cccc([N+](=O)[O-])c2)N1CCCN1CCOCC1 (stereo not given) | -9% | ? | nt | -5.5% | nt | 4% | nt | -26%[46.1 µM]
COc1ccccc1NC(=O)c1nn(-c2ccc(F)c(F)c2)ccc1=O | -14% | -13% | 9% | 0.3% | 4% | -28% | 2% | -14%
Cc1cc(F)c(F)c(C(=O)N2CCCCC2C)c1Cl (stereo not given) | nt | 4%[46.1 µM] | 31% | nt | -1% | -11% | nt | nt
CCn1cc(Cl)c(C(=O)NNC(=O)CCn2nc(C)c([N+](=O)[O-])c2C)n1 | -14% | 32% | -16% | -2.4% | 5% | 2% | 4% | ?
Cc1nc(-c2ccc(F)cc2)c(CC(=O)N2CCN(S(=O)(=O)c3cccc([N+](=O)[O-])c3)CC2)s1 | nt | -27%[46.1 µM] | 16% | nt | 3% | ? | nt | ?
CC1CCCCC1NS(=O)(=O)c1ccc(S(=O)(=O)N2CCN(CCC#N)CC2)cc1 (stereo not given) | 18% | nt | -14% | -3.0% | -2% | 0% | -27% | nt
N#CCCN(CCC#N)C(=O)COc1ccc(Cl)cc1Cl | 14% | ? | 3% | -0.8% | -20% | -4% | -2% | -4%
C=CCNC(=S)NNC(=O)C(CCCC)CC(C)O (stereo not given) | 0% | 6%[46.1 µM] | 1% | 1.4% | -11% | 2% | -12% | ?
COc1ccc(C(=O)CSc2nnc(CNC(=O)c3ccc(OC)c(OC)c3)n2C)cc1 | -7% | 5% | 1% | -6.7% | -3% | 0% | -26% | 14%
O=C(NCCCN1CCCC1=O)NC12CC3CC(CC(C3)C1)C2 | -16% | 1% | 2% | 4.2% | 2% | -17% | 0% | 2%
Cc1cccc(-n2nnc(C(=O)Nc3ccc(F)cc3)c2N)c1 | -2% | -19%[46.1 µM] | -5% | 4.0% | -6% | 22% | -9% | ?
COCCn1c(N)c(N(Cc2ccccc2)C(=O)CSCC(=O)Nc2ccc(OC)cc2)c(=O)[nH]c1=O | nt | -15% | 40% | nt | 3% | -3% | nt | -2%
COc1ccc2c(c1)c1c(c(=O)n(-c3cccc(C)c3)c(=O)n1CC(=O)NCCC1=CCCCC1)n2C | -1% | 23%[46.1 µM] | nt | -1.8% | nt | -20% | nt | -2%[46.1 µM]
Later entries
SMILES | Cruzain inh noDet | Marburg entry inh | RE007 growth inh | Cruzain inh Det | SARS PLP yeast | 2A StopGo | NS1 inh | LASV entry inh
Cc1onc(-c2ccccc2)c1C(=O)NNC(=S)NC(=O)c1ccc2c(c1)OCO2 | nt | -21%[46.1 µM] | 8% | nt | -2% | -18% | -43% | ?
CCN1CNC(=S)N(c2cccc(C)c2)C1 | nt | ? | ? | nt | -1% | -4% | 0% | ?
CCN(C(=O)CC(C)C)c1nnc(Cn2nnc3ccccc32)s1 | nt | -48%[46.1 µM] | 2% | nt | -1% | ? | nt | ?
O=C(COC(=O)C1CCN(c2ccc(C(F)(F)F)cn2)CC1)Nc1ccc(F)cc1[N+](=O)[O-] | nt | 27%[46.1 µM] | -9% | nt | 4% | -11% | nt | 18%
CCOc1ccc(S(=O)(=O)N(C)CC(=O)NC2CC2)cc1 | nt | 0%[46.1 µM] | -20% | nt | -7% | -2% | 5% | 1%[46.1 µM]
O=C1OC(/C(=C\Nc2ccc(F)cc2F)[N+](=O)[O-])c2ccccc21 (stereo not given) | nt | -6%[46.1 µM] | -6% | nt | -7% | -21% | 4% | -31%
CCOc1ccccc1C(=O)NN1C(=O)C2CCCCC2C1=O (stereo not given) | 3% | 8% | -21% | 0.2% | -2% | -3% | -7% | 10%
O=C(Nc1cccnc1Cl)c1cc(-c2ccco2)on1 | 3% | 4%[46.1 µM] | -16% | 5.2% | 5% | 62%[activator] | -50% | -1%
COC(=O)CSc1nnc(-c2ccc(OC)c(OC)c2)o1 | nt | 6%[46.1 µM] | -4% | nt | 0% | -4% | -8% | -15%[46.1 µM]
C/C(N)=C(\C#N)C(=O)NCCc1ccccn1 | 4% | 13% | 9% | 4.7% | 14% | 22% | 14% | -2%
